AID504770: growth inhibition of E. coli YBA685, primary screen, V. cholerae RctB inhibitors | AID 504770, 2011 | z-score (test concentration not listed) | E. coli YBA685 rctB-dependent plasmid, OD600 growth, 3 h; stronger effect = lower value | 130,000 tested, 0.27% active;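 active = z-score under -2 on both plates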;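 also: wells of about 30 µL received 100 nL stock; score is relative to mean and SD of the test wells; the first replicate is given; strong numbers were not always called active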
CapD inh: Bacillus anthracis CapD inhibitors, primary screen, biochemical, fluorescence intensity; 140,000 tested, 0.23% active; z-score (concentration not given with the values); purified CapD enzyme, fluorescence intensity read-out; stronger effect = lower value; some hits fall short of the stated cut; CapD gamma-glutamyltranspeptidase (Bacillus anthracis Ames Ancestor);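 active = z-score under -4 in either of two replicates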;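 also: stock transfer was 100 nL into about 40 µL; score is relative to mean and spread of the plate; one replicate is shown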
* = called active by the depositor; / = not tested or not shown; & = joins results of further samples. Not all compounds are listed, so the mix of outcomes need not match the whole.

SMILES	AID504770	CapD inh
COc1ccc(OC)c(C2C(N3C(=O)c4c(Cl)c(Cl)c(Cl)c(Cl)c4C3=O)C(=O)N2c2ccc(Br)cc2)c1 (stereo not drawn)	/	-0.25
O=S(=O)(NCc1ccco1)c1ccccc1	1.1	-0.005
CCC(C)OC(=O)C1=C(C)NC2=C(C(=O)CC(c3ccc(OC)cc3)C2)C1c1ccc(OC)c(OC)c1 (stereo not drawn)	/	30
Oc1ccccc1CNCc1ccccn1	1.7	-0.29
Cc1cnc(C(=O)OCC(=O)c2c[nH]c3ccccc23)cn1	-0.45	/
Cc1cc(I)ccc1NC1CCOC1=O (stereo not drawn)	-2.1	/
COC(=O)c1ccc(OC2OCCOC2Oc2ccc(C(=O)OC)cc2)cc1 (stereo not drawn)	1.1	/
O=C(Cn1cc(C(=O)c2ccccc2)c2ccccc21)NCc1ccco1	0.15	/
Cc1ccc(-n2c(-c3ccc(Br)cc3)cn3c4c(=O)n(C)c(=O)n(C)c4nc23)cc1	/	-0.24
C=CCOc1ccc(C(=O)N2CCOCC2)cc1	-0.6	-0.12
COc1ccc(N2C(N)=C(C#N)C(c3ccc(O)c(OC)c3)C3=C2CCCC3=O)cc1 (stereo not drawn)	0.65	/
CCOC(=O)c1c(C)[nH]c(N=Nc2ccccc2)c1C	-0.35	/
COc1ccc(C2C(C(=O)NC3CCCC(C)C3C)c3ccccc3C(=O)N2C)cc1 (stereo not drawn)	/	-0.045
COc1ccc(-c2cc(C(F)(F)F)n3ncc(C(=O)N4CCCCC4c4cccnc4)c3n2)cc1OC (stereo not drawn)	/	0.015
COC(=O)c1sccc1NS(=O)(=O)c1ccc2c(c1)CCO2	0.1	-0.38
N/C(=N\OC(=O)c1c(Cl)cccc1Cl)c1cccc([N+](=O)[O-])c1	/	-0.71
CC(C)Sc1nc(N2CCOCC2)c2c(c1C#N)CC(C)(C)OC2	/	0.91
O=C(Cc1nc(-c2cccs2)no1)Nc1cccc(C(F)(F)F)c1	-0.05	1.2
OCCN1CCN(Cc2ccccc2F)CC1	/	0.06
Cc1ccc(C)n1-c1sccc1C(=O)OCc1cc(=O)n2c3c(sc2n1)CCCC3	0.05	/
COc1ccc(/C=C(/NC(=O)c2ccccc2)C(=O)N/N=C\c2ccc([N+](=O)[O-])s2)cc1	/	-2
O=C1NC(=Nc2ccc(Br)cc2)SC1Cc1cccc(C(F)(F)F)c1 (stereo not drawn)	/	-0.12
CCCCSc1n[nH]c(=S)s1	/	-0.69
Cc1ccc2[nH]c(=S)n(C3CC4C=CC3C4)c(=O)c2c1 (stereo not drawn)	-0.55	5.3
c1ccc(CN2CCN(CCCNc3ccc4nncn4n3)CC2)cc1	2.3	0.61
(next part)
SMILES	AID504770	CapD inh
C=CCn1c(SC)nc2sc(CC)cc2c1=O	0.3	/
N#CCc1ccc(NC(=O)c2cc(Cl)ccc2NS(=O)(=O)c2cccc3nsnc23)cc1	/	-0.93
COc1ccc(C2/C(=C(\O)c3ccc(C)cc3)C(=O)C(=O)N2c2ccccc2)cc1OC (stereo not drawn)	/	-0.54
COCc1cc(OC(=O)N(C)C)nc2c1c(C)nn2C	1	31
N#Cc1ccc(Cn2c(CC3CCS(=O)(=O)C3)nc3ccccc32)cc1 (stereo not drawn)	-0.65	/
Cc1ccc(CSCC(=O)N2CCN(c3ccccc3)CC2)cc1	-0.15	0.13
Cc1cccc(NC(=O)CN(CC(=O)Nc2cccc(C)c2C)Cc2ccco2)c1C	-0.15	/
COc1ccc(C2/C(=C(\O)c3ccc(Cl)cc3)C(=O)C(=O)N2CCCN2CCOCC2)cc1OC (stereo not drawn)	/	-0.14
COc1ccc(C2CC(C(F)(F)F)n3nc(C(=O)Nc4cccc(C(C)O)c4)c(Cl)c3N2)cc1OC (stereo not drawn)	/	-0.34
Cc1ccc(CSCCC(=O)O)cc1	0.25	1.1
O=C(NC(=O)c1ccccc1F)NC1CC1	0.55	-0.31
COc1cc2c(cc1OC)C(Nc1ccc(Br)cc1)=NC(C)(C)C2	-1.1	15
NC(=O)C(c1ccccc1)c1ncc(C(F)(F)F)cc1Cl (stereo not drawn)	-2.7*	-0.04
COC(=O)C1=C(C)NC2=C(C(=O)CC(c3ccco3)C2)C1c1cccc(OC)c1 (stereo not drawn)	-1	/
CC(C)(C)c1ccc(N2C(=O)/C(=C/c3ccc([N+](=O)[O-])cc3)C=C2c2ccccc2)cc1	/	0.02
O=C(NC1CCN(Cc2ccc(Cl)cc2Cl)CC1)c1ccccc1	/	0.21
Cc1cccc(S(=O)(=O)N2CCCC(C)(C)C2)c1	/	0.32
COc1ccc(C(=O)COC(=O)c2ccc(S(=O)(=O)N(C)C)cc2)cc1	1.3	/
Cc1ccc2sc(-c3ccc(NC(=O)C(C)C)cc3)nc2c1	0.25	39
COc1ccc(N2C(=O)/C(=C/c3ccc(OC)c(OC)c3OC)C(=O)NC2=S)cc1	/	-0.12
COc1ccc(-c2[nH]c(=S)nc(N)c2-c2nc3ccccc3n2C)cc1	-0.9	/
COc1ccc(S(=O)(=O)Nc2ccccc2C(=O)N2CCC(c3c[nH]c4ccccc34)CC2)cc1	/	-0.45
O=C(CCn1c(=S)[nH]c2ccsc2c1=O)N1CCN(c2ccccc2)CC1	-0.3	0.07
Cc1ccc(-c2nn(-c3ccccc3)cc2C2CC(c3cccs3)=NN2C(=O)CCC(=O)O)cc1 (stereo not drawn)	/	23
CCOC(=O)c1cc(NC(=O)c2cc3ccccc3oc2=O)sc1CC	-0.8	-0.12
(list continues)
SMILES	AID504770	CapD inh
N#Cc1ccc(N2CCN(c3ccc(C(F)(F)F)cn3)CC2)nc1	0.8	9.6
CCCCSc1nc2c(cnn2-c2ccccc2)c(=O)[nH]1	-0.1	5.9
Cc1nnc(C)n1/N=C/c1ccccc1C(F)(F)F	1.6	-0.7
FC(F)(F)c1ccnc(N2CCC(NC(=S)NC3CC3)CC2)n1	/	1.4
NC(=O)C1CCN(C(=O)CSc2ccc3ccccc3c2)CC1	0.8	0.075
Cc1ccc(Oc2cc(C#N)c3ccccc3n2)c(-n2nc3ccccc3n2)c1	0.95	-0.4
COc1cccc(NC(=O)c2oc3ccccc3c2NC(=O)C2CCCC2)c1	-0.25	1.4
CCCCC(=O)NCc1ccc2c(c1)cc(C)n2C	1.2	-0.56
O=C(Nc1ccc2c(c1)OCO2)c1cc2n(n1)C(C(F)(F)F)CC(c1ccc(Cl)c(Cl)c1)N2 (stereo not drawn)	/	1
CCN1CCN(C(=O)c2ccc(COc3ccc(Cl)cc3)o2)CC1	-0.05	0.11
CCCNC(=O)c1ccc(Cn2nc(-n3cccc3)c3c(C)cc(C)nc32)cc1	0.5	3.6
Cc1cccc(C)c1NC(=O)C(NC(=O)CC1NC(=O)NC1=O)c1ccccc1 (stereo not drawn)	0	-0.07
O=C(CC1SC(=Nc2ccc(O)cc2)NC1=O)c1ccccc1 (stereo not drawn)	0.8	/
CCS(=O)(=O)N1CCC(c2nc3ccccc3s2)CC1	0.5	-0.24
CCOC(=O)c1c(NC(=O)CSc2ncccn2)sc2c1CCC2	-0.35	22
CCCN(CCC)CN1CC(Cn2c3ccccc3c3ccccc32)OC1=O (stereo not drawn)	-1	-0.32
Cc1ccccc1CNCc1cccnc1	-0.85	-0.3
CC(=O)N1CCN=C1SCc1ccc(Br)cc1	0.1	/
OCC1(C2=NOC(O)(C(F)(F)F)C2)CCCCC1 (stereo not drawn)	-0.9	0.035
COC(=O)c1ccc(Nc2nc(C)cc(C)n2)cc1	/	-0.64
C/C(=N\OC(=O)c1ccc(F)cc1)c1sc(-c2ccccc2)nc1C	/	-0.17
CC(=O)N(Cc1nc(-c2ccccc2)no1)C(C)C	-0.8	/
Cc1ccc(S(=O)(=O)N2CCc3ccccc3C2)cc1C(N)=O	0.95	/
O=C(Nc1ccccc1)OCc1cc(-c2ccccc2)c(C(F)(F)F)s1	0.2	0.28
O=C(Cn1c(=O)n(Cc2ccc(C(=O)NC3CCCC3)cc2)c(=O)c2ccccc21)c1ccccc1	-0.6	0.2
Next section
SMILES	AID504770	CapD inh
Cc1c(Cl)cccc1NC(=O)C1CC2CCCC(C1)C2=O (stereo not drawn)	0.65	0.78
COc1c(S(=O)(=O)n2cnc3ccccc32)ccc(Cl)c1Cl	0.55	0.7
Cc1cc(C(N)=O)oc(=O)c1	/	1.8
Cc1ccc(NC(=O)c2cc(S(=O)(=O)N3CCCCC3)ccc2F)cc1	0.65	0.43
COC(=O)Nc1c(C)n(C)n(-c2ccccc2)c1=O	-0.15	0.11
CC1(C)OC(=O)N(C2CC2)C1(C)O (stereo not drawn)	/	-0.16
CN(C)S(=O)(=O)c1ccc(/C(O)=C2\C(=O)C(=O)N(Cc3cccnc3)C2c2ccco2)cc1 (stereo not drawn)	-0.45	-1
O=c1[nH]c2ccc(Cl)cc2c(-c2ccccc2)c1N1CCN(CCO)CC1	-1	26
O=C(OCC(=O)N1CCCCC1)c1c(Cl)cccc1Cl	-0.4	/
CNC(=S)NCCc1cc2c(OC)ccc(OC)c2[nH]c1=O	0.15	/
O=C(C/C=N/OCc1ccccc1F)c1cnc(-c2ccc(Cl)cc2)s1	/	-0.2
O=c1c2cccnc2n(Cc2cccc(F)c2)c(=O)n1CCc1c[nH]c2ccccc12	-0.85	-0.72
Cc1ccc(C(=O)NCC(c2ccco2)N2CCCC2)cc1 (stereo not drawn)	0.2	0.42
O=C(Oc1ccc(Cl)cc1Sc1cc(Cl)ccc1OC(=O)c1ccc([N+](=O)[O-])cc1)c1ccc([N+](=O)[O-])cc1	/	1.2
O=C(C/C=N\OCc1ccc(Cl)c(Cl)c1)Nc1ccc(Cl)cc1	/	-0.53
Clc1ccc2nc(-c3ccc(Br)cc3)cn2c1	/	1.5
C=C(C)Cc1c(C)nc(N)[nH]c1=O	-0.05&-0.35	-0.52&-0.13
O=C(CSc1ccccn1)N(C1CCCCC1)C1CCS(=O)(=O)C1 (stereo not drawn)	-0.15	/
Cc1onc(-c2c(Cl)cccc2Cl)c1CC#N	0.2	0.83
Cc1ccc(C)n1-c1sc2c(c1C#N)CCCC2	0.85	/
COc1cccc(OC)c1C(=O)Nc1nnc(SC)s1	-1.2	-0.7
Cc1nc(-c2ccccn2)nc(NC2CCN(c3ncc(C(F)(F)F)cc3Cl)CC2)c1Cl	0.5	0.32
N#Cc1cnn(-c2cccc(Cl)c2)c1-n1cccc1	/	0.06
O=C(Nc1ccc(N2CCCCC2)cc1)Nc1ccc(F)cc1F	2.8	-0.35
CCOC(=O)Nc1ccc2c(c1)N(C(=O)CCN(CC)CC)c1ccccc1CC2	/	6.2
O=C(c1ccccc1)c1cc(Br)ccc1NC(=O)c1c(O)c2ccccc2[nH]c1=O	/	-1
O=C(COC(=O)c1ccccc1O)c1ccc(Cl)cc1	0.4	0.84

An excerpt of the results above:
SMILES	AID504770	CapD inh
O=C(Cn1c(=O)n(Cc2ccc(C(=O)NC3CCCC3)cc2)c(=O)c2ccccc21)c1ccccc1	-0.6	0.2
Cc1c(Cl)cccc1NC(=O)C1CC2CCCC(C1)C2=O (stereo not drawn)	0.65	0.78
COc1c(S(=O)(=O)n2cnc3ccccc32)ccc(Cl)c1Cl	0.55	0.7
Cc1cc(C(N)=O)oc(=O)c1	/	1.8
Cc1ccc(NC(=O)c2cc(S(=O)(=O)N3CCCCC3)ccc2F)cc1	0.65	0.43
COC(=O)Nc1c(C)n(C)n(-c2ccccc2)c1=O	-0.15	0.11
CC1(C)OC(=O)N(C2CC2)C1(C)O (stereo not drawn)	/	-0.16
CN(C)S(=O)(=O)c1ccc(/C(O)=C2\C(=O)C(=O)N(Cc3cccnc3)C2c2ccco2)cc1 (stereo not drawn)	-0.45	-1
O=c1[nH]c2ccc(Cl)cc2c(-c2ccccc2)c1N1CCN(CCO)CC1	-1	26
O=C(OCC(=O)N1CCCCC1)c1c(Cl)cccc1Cl	-0.4	/
CNC(=S)NCCc1cc2c(OC)ccc(OC)c2[nH]c1=O	0.15	/
O=C(C/C=N/OCc1ccccc1F)c1cnc(-c2ccc(Cl)cc2)s1	/	-0.2
O=c1c2cccnc2n(Cc2cccc(F)c2)c(=O)n1CCc1c[nH]c2ccccc12	-0.85	-0.72
Cc1ccc(C(=O)NCC(c2ccco2)N2CCCC2)cc1 (stereo not drawn)	0.2	0.42
O=C(Oc1ccc(Cl)cc1Sc1cc(Cl)ccc1OC(=O)c1ccc([N+](=O)[O-])cc1)c1ccc([N+](=O)[O-])cc1	/	1.2
O=C(C/C=N\OCc1ccc(Cl)c(Cl)c1)Nc1ccc(Cl)cc1	/	-0.53
Clc1ccc2nc(-c3ccc(Br)cc3)cn2c1	/	1.5
C=C(C)Cc1c(C)nc(N)[nH]c1=O	-0.05&-0.35	-0.52&-0.13
O=C(CSc1ccccn1)N(C1CCCCC1)C1CCS(=O)(=O)C1 (stereo not drawn)	-0.15	/
Cc1onc(-c2c(Cl)cccc2Cl)c1CC#N	0.2	0.83
Cc1ccc(C)n1-c1sc2c(c1C#N)CCCC2	0.85	/
COc1cccc(OC)c1C(=O)Nc1nnc(SC)s1	-1.2	-0.7
Cc1nc(-c2ccccn2)nc(NC2CCN(c3ncc(C(F)(F)F)cc3Cl)CC2)c1Cl	0.5	0.32
N#Cc1cnn(-c2cccc(Cl)c2)c1-n1cccc1	/	0.06
O=C(Nc1ccc(N2CCCCC2)cc1)Nc1ccc(F)cc1F	2.8	-0.35

Bioassay records: PubChem BioAssay, ICCB-Longwood Screening Facility, Harvard Medical School
